# Yeast UUG start: yeast start codon fidelity modulation; AID 602363; 350,000 tested, 0.13% active; S. cerevisiae UUG-firefly luciferase reporter, luminescence/redox ratio; activity score, % at 18.7 µM;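 active = replicate mean at a twofold rise or more, about +100% in these data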;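 also: firefly luciferase made from a UUG start codon reports start codon fidelity; reporter light over untreated wells divided by growth signal over untreated wells; some hits fall short of that in this replicate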
# Active calls of the source: *.
structure	Yeast UUG start
COc1ccccc1CN1[C@H](CO)[C@H]2c3ccccc3N(C(=O)c3ccc(F)cc3)C[C@H]21	0
COCC(=O)Nc1ccc2c(c1)[C@H]1C[C@@H](CC(=O)OC)O[C@@H](CO)[C@H]1O2	-14
COc1ccc(C(=O)Nc2ccc3c(c2)C(=O)N(C)C[C@H](OC)[C@H](C)CN(C(C)=O)[C@@H](C)CO3)cc1	9
CC(C)NC(=O)Nc1ccc2c(c1)C(=O)N([C@H](C)CO)C[C@@H](C)[C@H](CN(C)Cc1ccncc1)O2	-1
CC(=O)N1[C@H](CO)[C@@H](c2ccc(-c3ccc(F)cc3)cc2)[C@H]1CNC(=O)C1CC1	0
CC(C)N(C[C@@H]1N[C@@H](CO)[C@@H]1c1ccccc1)S(=O)(=O)c1ccccc1	-18
CNC(=O)C[C@@H]1CC[C@H]2[C@H](COc3ccc(NC(=O)Nc4cccc(C)c4)cc3C(=O)N2C)O1	11
COc1cccc(C(=O)Nc2ccc3c(c2)C(=O)N(C)C[C@H](OC)[C@@H](C)CN(C)[C@@H](C)CO3)c1	0
COCC#Cc1ccc([C@H]2[C@H]3CN(C(=O)COC)CCCCN3[C@H]2CO)cc1	9
COc1ccc(NC(=O)Nc2cccc3c2O[C@H](CN(C)Cc2ccncc2)[C@@H](C)CN([C@H](C)CO)C3=O)cc1	-6
CC(C)NC(=O)Nc1ccc2c(c1)CC(=O)N([C@@H](C)CO)C[C@@H](C)[C@@H](CN(C)Cc1ccncc1)O2	7
O=C(NC1CCCC1)N1CCCCN2[C@@H](CO)[C@H](c3ccc(-c4ccccc4)cc3)[C@@H]2C1	-9
COCC(=O)N1CC[C@@H]2[C@@H](CO)Nc3ccc(-c4ccc(C(=O)N(C)C)cc4)cc3[C@@H]21	9
COc1ccc(NC(=O)N(C)C[C@@H]2Oc3ccc(NC(=O)NC(C)C)cc3C(=O)N([C@@H](C)CO)C[C@@H]2C)cc1	32
COc1ccc(CNC(=O)C2CCN(S(=O)(=O)c3cccc(C(F)(F)F)c3)CC2)cc1	14
CO[C@@H]1CN(C)C(=O)c2cc(NS(C)(=O)=O)ccc2OC[C@@H](C)N(CC2CC2)C[C@H]1C	-12
C[C@H]1CN([C@@H](C)CO)C(=O)c2cc(NC(=O)Nc3ccc(C(F)(F)F)cc3)ccc2O[C@H]1CN(C)CC1CCCCC1	6
O=C(NC1Cc2ccccc2C1)[C@@H]1[C@@H](CO)[C@@H]2Cn3c(ccc(C4=CCCCC4)c3=O)[C@H]1N2CC1CC1	25
CCCNC(=O)C[C@@H]1C[C@H]2c3cc(NC(=O)CC4CC4)ccc3O[C@H]2[C@H](CO)O1	139*
O=C(Nc1cccc(F)c1)N1CCCCN2[C@H](CO)[C@@H](c3ccc(C#Cc4ccccc4)cc3)[C@H]2C1	-4
Cc1cccc(S(=O)(=O)N2CCCCN3[C@H](C2)[C@H](c2ccc(-c4ccncc4)cc2)[C@@H]3CO)c1	4
CCCNC(=O)N1[C@H](CO)[C@H]2c3ccccc3N(C)C[C@H]21	7
Cc1noc(C)c1NC(=O)Nc1ccc2c(c1)C(=O)N([C@@H](C)CO)C[C@@H](C)[C@H](CN(C)Cc1ccc(C(=O)O)cc1)O2	-5
C[C@H](O)C#Cc1ccc([C@@H]2[C@H]3CN(S(=O)(=O)c4ccccc4)CCCCN3[C@H]2CO)cc1	21
O=S(=O)(c1ccccc1)N1CC[C@@H]2[C@@H](CO)Nc3ccc(Br)cc3[C@@H]21	-8
C[C@H]1CN([C@@H](C)CO)C(=O)c2cccc(NC(=O)Nc3ccc4c(c3)OCO4)c2O[C@H]1CN(C)C(=O)NC1CCCCC1	12
C[C@@H]1CN([C@@H](C)CO)C(=O)c2cc(NC(=O)Cc3cn(C)c4ccccc34)ccc2O[C@H]1CN(C)CC1CCCCC1	20
C[C@H]1CN([C@@H](C)CO)C(=O)Cc2cc(NC(=O)Nc3cccc4ccccc34)ccc2O[C@H]1CN(C)C	5
COCC(=O)NC[C@@H]1[C@H](c2ccccc2)[C@@H](CO)N1C(C)=O	2
O=C(Nc1cccc(F)c1)N1C[C@@H]2[C@H](c3ccccc31)[C@H](CO)N2C(=O)c1ccccc1F	3

# Ordered by value in Yeast UUG start (high to low): seven of the compounds above
structure	Yeast UUG start
COc1ccc(NC(=O)N(C)C[C@@H]2Oc3ccc(NC(=O)NC(C)C)cc3C(=O)N([C@@H](C)CO)C[C@@H]2C)cc1	32
C[C@@H]1CN([C@@H](C)CO)C(=O)c2cc(NC(=O)Cc3cn(C)c4ccccc34)ccc2O[C@H]1CN(C)CC1CCCCC1	20
C[C@H]1CN([C@@H](C)CO)C(=O)c2cccc(NC(=O)Nc3ccc4c(c3)OCO4)c2O[C@H]1CN(C)C(=O)NC1CCCCC1	12
CC(C)NC(=O)Nc1ccc2c(c1)CC(=O)N([C@@H](C)CO)C[C@@H](C)[C@@H](CN(C)Cc1ccncc1)O2	7
C[C@H]1CN([C@@H](C)CO)C(=O)c2cc(NC(=O)Nc3ccc(C(F)(F)F)cc3)ccc2O[C@H]1CN(C)CC1CCCCC1	6
Cc1cccc(S(=O)(=O)N2CCCCN3[C@H](C2)[C@H](c2ccc(-c4ccncc4)cc2)[C@@H]3CO)c1	4
Cc1noc(C)c1NC(=O)Nc1ccc2c(c1)C(=O)N([C@@H](C)CO)C[C@@H](C)[C@H](CN(C)Cc1ccc(C(=O)O)cc1)O2	-5

# The listing continues.
structure	Yeast UUG start
CCC(=O)N1C[C@@H](C)[C@H](OC)CN(C)C(=O)c2ccc(NC(=O)C3CC3)cc2OC[C@@H]1C	-1
CO[C@H]1CN(C)C(=O)c2cc(NC(=O)c3cccc(F)c3)ccc2OC[C@H](C)N(CC2CC2)C[C@@H]1C	0
C[C@@H]1CN([C@@H](C)CO)C(=O)c2cccc(NC(=O)NC3CCCCC3)c2O[C@@H]1CN(C)Cc1ccc(C(=O)Nc2ccccc2N)cc1	-2
CN(C)C(=O)c1cccc(-c2ccc3c(c2)[C@@H]2[C@@H](CCN2C(=O)Nc2cccc(F)c2)[C@H](CO)N3C)c1	1
O=S(=O)(c1ccccc1)N1CCCCN2[C@H](CO)[C@H](c3ccc(C#Cc4ccccn4)cc3)[C@H]2C1	16
COc1cccc(S(=O)(=O)N2CCCCN3[C@H](CO)[C@@H](c4ccc(-c5cncnc5)cc4)[C@@H]3C2)c1	-11
O=C(C[C@@H]1CC[C@H]2[C@@H](COC[C@H](O)CN2C(=O)Nc2ccc(F)cc2)O1)NC1Cc2ccccc2C1	53
CCC(=O)N1C[C@@H](C)[C@@H](OC)CN(C)C(=O)c2ccc(NC(=O)c3cnccn3)cc2OC[C@H]1C	-3
Cc1noc(C)c1NC(=O)Nc1ccc2c(c1)C(=O)N([C@@H](C)CO)C[C@H](C)[C@@H](CN(C)Cc1ccc(Oc3ccccc3)cc1)O2	-9
C[C@H](CO)N1C[C@H](C)[C@H](CN(C)S(=O)(=O)c2cn(C)cn2)Oc2ccc(NC(=O)Nc3cccc4ccccc34)cc2C1=O	6
Cc1ccc(S(=O)(=O)N2CC[C@@H]3[C@@H](CO)Nc4ccc(-c5cccc(C(=O)N(C)C)c5)cc4[C@@H]32)cc1	-3
C[C@H]1CN([C@@H](C)CO)C(=O)c2cc(NC(=O)CCN3CCOCC3)ccc2O[C@H]1CN(C)C	-14
C[C@H](NC(=O)[C@@H]1[C@@H](CO)[C@@H]2Cn3c(ccc(-c4ccccc4)c3=O)[C@H]1N2C)c1ccccc1	-1
CO[C@@H]1CN(C)C(=O)c2ccc(NC(=O)C3CCC3)cc2OC[C@@H](C)N(Cc2cccnc2)C[C@H]1C	-2
CO[C@H]1CN(C)C(=O)c2ccc(NC(=O)C3CC3)cc2OC[C@H](C)N(C(=O)CN(C)C)C[C@H]1C	-11
CC1C=NC(S(=O)(=O)N2CC[C@@H]3[C@H](CO)N(C)c4ccc(-c5ccccc5F)cc4[C@@H]32)=N1 (stereo partly drawn)	-2
Cc1ccccc1S(=O)(=O)N(C)C[C@H]1OCc2ccccc2-c2c(n(C)c3ccccc23)C(=O)N([C@@H](C)CO)C[C@@H]1C	-1
CN1C(=O)c2cc(NC(=O)C3CC3)ccc2OC[C@H]2O[C@H](CC(=O)NCCN3CCCC3)CC[C@H]21	16
C[C@H](CO)N1C[C@H](C)[C@H](CN(C)Cc2ccc(-c3ccccc3)cc2)Oc2ccc(NC(=O)Cn3cnnn3)cc2CC1=O	12
O=C(C[C@H]1CC[C@@H]2[C@H](COC[C@H](O)CN2S(=O)(=O)c2cccc(Cl)c2)O1)N1CCOCC1	0
C[C@@H]1CN([C@@H](C)CO)C(=O)CCCn2nncc2CO[C@H]1CN(C)Cc1ccccc1C(=O)O	-3
CCN(C[C@H]1N[C@@H](CO)[C@@H]1c1ccc(-c2ccccc2)cc1)C(=O)COC	6
CC(C)NC(=O)N1C[C@H]2[C@@H](c3ccccc31)[C@H](CO)N2C(=O)c1cccnc1	-4
O=C(C[C@@H]1CC[C@H]2[C@@H](COC[C@@H](O)CN2C(=O)Nc2ccc(Cl)c(Cl)c2)O1)NCc1ccc(Cl)c(Cl)c1	-17
C[C@H]1CN([C@@H](C)CO)C(=O)Cc2cc(NS(=O)(=O)c3cccs3)ccc2O[C@@H]1CN(C)C	23
O=C(Nc1cc(F)ccc1F)N1C[C@@H]2[C@H](c3ccccc31)[C@@H](CO)N2CC1CCCC1	-12
COc1ccc(S(=O)(=O)N(C)C[C@@H]2Oc3ccc(NC(=O)CCC(F)(F)F)cc3C(=O)N([C@@H](C)CO)C[C@H]2C)cc1	6
Cc1ccccc1-c1ccc([C@@H]2[C@@H](CO)N3CCCCN(C(=O)Nc4cccc(F)c4)C[C@H]23)cc1	13
CO[C@@H]1CN(C)C(=O)c2cc(NS(C)(=O)=O)ccc2OC[C@H](C)N(CCC(F)(F)F)C[C@H]1C	-3
O=C(C[C@@H]1CC[C@@H]2[C@H](COC[C@@H](O)CN2Cc2ccc(Oc3ccccc3)cc2)O1)N1CCCCC1	-1

# Reformatted as labelled records: two of the compounds above.
O=S(=O)(c1ccccc1)N1CCCCN2[C@H](CO)[C@H](c3ccc(C#Cc4ccccn4)cc3)[C@H]2C1
  Yeast UUG start: 16
COc1cccc(S(=O)(=O)N2CCCCN3[C@H](CO)[C@@H](c4ccc(-c5cncnc5)cc4)[C@@H]3C2)c1
  Yeast UUG start: -11

# (list continues)
structure	Yeast UUG start
COc1ccc(NC(=O)Nc2ccc3c(c2)C(=O)N([C@H](C)CO)C[C@@H](C)[C@H](CN(C)Cc2ccncc2)O3)cc1	-13
O=S(=O)(c1cccs1)N1CCCCN2[C@H](CO)[C@H](c3ccc(Br)cc3)[C@@H]2C1	2
O=C(CN1CCOCC1)N1[C@@H]2CNc3ccccc3[C@@H]2[C@@H]1CO	-10
COc1ccc(S(=O)(=O)N(C)C[C@H]2Oc3c(NC(=O)NC4CCCCC4)cccc3C(=O)N([C@H](C)CO)C[C@H]2C)cc1	8
CO[C@H]1CN(C)C(=O)c2cc(NC(=O)Nc3ccccc3F)ccc2OC[C@H](C)NC[C@H]1C	-5
CO[C@@H]1CN(C)C(=O)c2cc(NS(=O)(=O)c3ccccc3)ccc2OC[C@@H](C)N(Cc2cccnc2)C[C@@H]1C	-2
CC(C)C#Cc1cnc2c(c1)C(=O)N([C@@H](C)CO)C[C@@H](C)[C@H](CN(C)C(=O)Cc1ccncc1)O2	-3
CS(=O)(=O)Nc1ccc2c(c1)[C@@H]1C[C@H](CC(=O)NCc3ccccc3F)O[C@H](CO)[C@@H]1O2	-7
OC[C@H]1[C@H](c2ccc(-c3ccc(F)cc3)cc2)[C@@H]2CN(Cc3ccncc3)CCCCN12	-12
Cc1noc(C)c1NC(=O)Nc1cccc2c1O[C@@H](CN(C)S(=O)(=O)c1cccs1)[C@@H](C)CN([C@@H](C)CO)C2=O	3
C[C@H](CO)N1C[C@H](C)[C@H](CN(C)S(=O)(=O)c2cn(C)cn2)Oc2ccc(NC(=O)Cc3ccccc3)cc2C1=O	-7
CCS(=O)(=O)N1CCCCN2[C@H](C1)[C@H](c1ccc(-c3ccc(C#N)cc3)cc1)[C@@H]2CO	-2
CN1c2ccc(-c3ccc(C#N)cc3)cc2[C@@H]2[C@@H](CCN2C(=O)Nc2ccccc2F)[C@@H]1CO	-12
CO[C@H]1CN(C)C(=O)c2ccc(NC(=O)c3ccccc3F)cc2OC[C@H](C)N(C(C)=O)C[C@@H]1C	-3
COc1ccccc1-c1ccc([C@@H]2[C@@H](CO)N3CCCCN(C(=O)c4ccncc4)C[C@@H]23)cc1	11
O=C(NC[C@H]1N[C@H](CO)[C@@H]1c1ccc(-c2ccccc2)cc1)c1cccc(F)c1	-14
O=C(C[C@H]1CC[C@H]2[C@@H](COC[C@@H](O)CN2S(=O)(=O)c2ccccc2)O1)NCC1CCCCC1	12
C[C@H]1CN([C@@H](C)CO)C(=O)c2cc(NC(=O)c3ccncc3)ccc2O[C@H]1CN(C)C(=O)Nc1ccccc1	-16
O=C(Nc1ccc(Cl)cc1)N1C[C@H]2[C@@H](c3ccccc31)[C@H](CO)N2C(=O)C1CC1	-5
CO[C@H]1CN(C)C(=O)c2cc(NC(=O)C3CCC3)ccc2OC[C@H](C)N(CC2CCCCC2)C[C@H]1C	-9
Cc1ccccc1S(=O)(=O)N1CC[C@@H]2[C@H](CO)Nc3ccc(C#Cc4ccccc4)cc3[C@@H]21	1
COc1ccc(C#Cc2ccc([C@H]3[C@@H](CO)N4CCCCN(C(=O)Nc5ccccc5F)C[C@@H]34)cc2)cc1	-3
Cc1ccc(S(=O)(=O)Nc2ccc3c(c2)C(=O)N([C@@H](C)CO)C[C@@H](C)[C@H](CN(C)S(=O)(=O)c2cccs2)O3)cc1	1
C[C@H](CO)N1C[C@H](C)[C@@H](CN(C)Cc2ccc(C(=O)Nc3ccccc3N)cc2)Oc2c(NC(=O)C3CCOCC3)cccc2C1=O	15
CN1C(=O)c2cc(NC(=O)Cc3ccccc3)ccc2OC[C@@H]2O[C@H](CC(=O)NC3CCC3)CC[C@@H]21	7
C[C@H]1CN([C@@H](C)CO)C(=O)c2cc(NC(=O)NC3CCCCC3)ccc2O[C@@H]1CN(C)S(=O)(=O)c1ccc(F)cc1	2

# Not all compounds are listed; count on the stated rates, not on these rows.
